# Screening results deposited in PubChem BioAssay by Broad Institute.
# Vaccinia stage – blocks a specific stage of Vaccinia orthopoxvirus infection; Vaccinia-infected cells, mCherry/Venus stage reporter fluorescence; hits give low values; some inactives read as strong as hits; activity change (mCherry), % (test concentration not listed); hit rate 0.01% among 89,000; AID 1053133;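 active = mCherry past -33% and 40 or more points under the early reporter, replicates agreeing; inconclusive = past -33% without that gap or agreement; tested in A549 cells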;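 also: scaled between vehicle wells and reference inhibitor wells; 23 nL library stock went into each well; one replicate is shown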
# Vaccinia stage Venus – recorded beside Vaccinia stage, whose call it bears; activity change (Venus), %; measured here: Venus reporter, other viral stage;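 negative = less Venus signal; first of two replicates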
# Numbers without * were called inactive; ? = inconclusive; / = not tested or not shown. These rows are one share of the data; the hit share may differ from the screen's.
SMILES | Vaccinia stage | Vaccinia stage Venus
C[C@@H]1CN([C@H](C)CO)C(=O)c2cccc(NS(=O)(=O)c3ccc(Cl)cc3)c2O[C@H]1CN(C)C(=O)NC1CCCCC1 | 14 | 3
C[C@H]1CN([C@@H](C)CO)C(=O)Cc2cc(NS(=O)(=O)c3cccs3)ccc2O[C@@H]1CN(C)C(=O)NC1CCCCC1 | 8 | -2
C[C@H](CO)N1C[C@H](C)[C@H](CN(C)C)Oc2cc(-c3cccc(C(=O)N(C)C)c3)ccc2S1(=O)=O | 12 | 13
COCC(=O)NC[C@@H]1CC[C@@H]2[C@@H](CN2S(=O)(=O)c2ccccc2[N+](=O)[O-])O1 | 3 | 0
C[C@H]1CN([C@@H](C)CO)C(=O)c2ccccc2-c2ccccc2CO[C@H]1CN(C)Cc1ccc2c(c1)OCO2 | -19 | -19
C/C=C/c1ccc2c(c1)O[C@@H](CN(C)C(=O)Nc1cccc(F)c1)[C@H](C)CN([C@H](C)CO)S2(=O)=O | ? | /
CCC(=O)N1CC(=O)N2[C@@H](CO)[C@H](c3ccc(-c4ccncc4)cc3)[C@@H]2C1 | 21 | 9
COc1ccc(-c2ccc3n(c2=O)C[C@@H]2[C@@H](CO)[C@H](C(=O)Nc4ccccc4)[C@H]3N2C)cc1 | 0 | 5
COc1ccc(S(=O)(=O)Nc2ccc3c(c2)CC(=O)N([C@@H](C)CO)C[C@H](C)[C@H](CN(C)C(=O)NC2CCCCC2)O3)cc1 | 12 | 7
CCCNC(=O)N1C[C@@H]2[C@H](c3ccccc31)[C@H](CO)N2CC1CCCC1 | 14 | 23
C[C@H](CO)N1C[C@H](C)[C@H](CN(C)Cc2ccc3c(c2)OCO3)OCCCC[C@H](C)Oc2ccc(NC(=O)CCCN(C)C)cc2C1=O | 7 | -3
C[C@@H]1CN([C@H](C)CO)C(=O)c2cc(NC(=O)Nc3ccccc3)ccc2O[C@@H](C)CCCCO[C@@H]1CN(C)C(=O)CCC(F)(F)F | 12 | 9
CO[C@H]1CN(C)C(=O)c2cc(NC(C)=O)ccc2OC[C@@H](C)N(Cc2ccccc2F)C[C@@H]1C | -8 | 4
C[C@H](CO)N1C[C@H](C)[C@@H](CN(C)S(=O)(=O)c2cn(C)cn2)Oc2ccc(NS(=O)(=O)c3ccc(F)cc3)cc2CC1=O | 4 | -3
C[C@@H]1CCCCO[C@@H](CN(C)S(=O)(=O)c2ccc(Cl)cc2)[C@@H](C)CN([C@H](C)CO)C(=O)c2cc(NC(=O)c3ccncc3)ccc2O1 | 19 | 6
CO[C@@H]1CN(C)C(=O)c2cc(NC(=O)C3CC3)ccc2OC[C@@H](C)N(C(=O)CN(C)C)C[C@@H]1C | -8 | -4
CS(=O)(=O)Nc1ccc2c(c1)[C@H]1C[C@H](CC(=O)NC3CCCC3)O[C@@H](CO)[C@H]1O2 | -13 | -12
C[C@H]1CN([C@@H](C)CO)C(=O)c2cccc(NS(=O)(=O)c3cn(C)cn3)c2O[C@@H]1CN(C)C(=O)Nc1ccccc1 | 11 | 4
C[C@@H]1CN([C@@H](C)CO)C(=O)Cc2cc(NC(=O)NC3CCCCC3)ccc2O[C@@H]1CN(C)Cc1ccc(-c2ccccc2)cc1 | -22 | -8
CC(C)NC(=O)N[C@H]1C=C[C@@H](CC(=O)NCCCN(C)C)O[C@H]1CO | 2 | 2
Cc1ccc(-c2cnc3c(c2)C(=O)N([C@H](C)CO)C[C@H](C)[C@@H](CN(C)CC2CCCC2)O3)cc1 | ? | /
O=C(Nc1ccc2c(c1)[C@@H]1C[C@@H](CC(=O)N3CCCCC3)O[C@@H](CO)[C@@H]1O2)C1CCOCC1 | -1 | -5
C[C@@H](NC(=O)C[C@@H]1CC[C@H](NS(=O)(=O)c2cccc(F)c2)[C@@H](CO)O1)c1ccccc1 | 5 | 2
CO[C@H]1CN(C)C(=O)c2ccc(NC(C)=O)cc2OC[C@H](C)N(C(=O)c2ccccc2)C[C@H]1C | 12 | 9
CCCNC(=O)N1C[C@H]2[C@@H](c3ccccc31)[C@@H](CO)N2Cc1ccc2c(c1)OCO2 | 12 | 4
O=C(c1ccccn1)N1CC2(C1)[C@@H](c1ccccc1)[C@@H](CO)N2Cc1ccc(Cl)cc1 | -14 | 1
CCCNC(=O)N[C@H]1C=C[C@@H](CC(=O)NCCc2ccccc2)O[C@@H]1CO | 1 | 1
COc1ccc(NC(=O)N2CC(=O)N3[C@H](CO)[C@H](c4ccc(C5=CCCC5)cc4)[C@H]3C2)cc1 | -12 | -15
CCC(=O)N(C)C[C@@H]1Oc2ncc(-c3ccc(C)cc3)cc2C(=O)N([C@@H](C)CO)C[C@@H]1C | 8 | 13
COc1ccc(S(=O)(=O)N(C)C[C@H]2Oc3ccc(NC(=O)Nc4ccc5c(c4)OCO5)cc3C(=O)N([C@H](C)CO)C[C@H]2C)cc1 | 4 | 12
CCN1[C@H](C(=O)NCCc2cn(C)cn2)[C@@H](CO)[C@@H]2Cn3c(ccc(-c4ccc(F)cc4)c3=O)[C@@H]21 | -15 | 5
C[C@@H]1CN([C@H](C)CO)C(=O)c2cccc(NS(=O)(=O)c3ccc(Cl)cc3)c2O[C@H]1CN(C)Cc1ccc(Oc2ccccc2)cc1 | -29 | -25
O=C1c2ccccc2C(=O)N1C[C@@H]1CCCN(Cc2ccc(OCCO)cc2)C1 | 16 | 12
Cc1noc(C)c1S(=O)(=O)Nc1ccc2c(c1)C(=O)N([C@H](C)CO)C[C@H](C)[C@H](CN(C)C(=O)c1ccncc1)OCCCC[C@@H](C)O2 | -1 | 0
Cc1ccc(S(=O)(=O)N(C)C[C@H]2Oc3c(NC(=O)c4ccc(-c5nccs5)cc4)cccc3C(=O)N([C@H](C)CO)C[C@H]2C)cc1 | -30 | -29
CCCN(C)C[C@@H]1Oc2ncc(-c3ccccc3F)cc2C(=O)N([C@@H](C)CO)C[C@@H]1C | -9 | -12
Cc1noc(C)c1S(=O)(=O)Nc1ccc2c(c1)C(=O)N([C@H](C)CO)C[C@H](C)[C@H](CN(C)C)OCCCC[C@@H](C)O2 | 22 | 5
C[C@H]1CN([C@@H](C)CO)C(=O)Cc2cc(NC(=O)Nc3ccccc3)ccc2O[C@H]1CN(C)S(=O)(=O)c1cccs1 | ? | /
CCS(=O)(=O)Nc1ccc2c(c1)C(=O)N(C)C[C@@H](OC)[C@H](C)CN(C(=O)COC)[C@H](C)CO2 | -16 | -13
CC(C)NC(=O)N(C)C[C@@H]1Oc2ncc(C#CC3(O)CCCC3)cc2C(=O)N([C@@H](C)CO)C[C@H]1C | 21 | 8
CCC(=O)N1[C@H](CO)[C@H]2c3ccccc3N(C(=O)Nc3ccc(Cl)cc3)C[C@H]21 | 12 | 6
CN(C)CC(=O)N1[C@H](C#N)[C@H](c2ccccc2-c2ccc(C(=O)N(C)C)cc2)[C@@H]1CO | 3 | 6
COCc1cn(CC[C@H]2CC[C@H](NC(=O)Nc3ccc4c(c3)OCO4)[C@H](CO)O2)nn1 | 5 | 10
O=S(=O)(c1cccs1)N1CCCCN2[C@H](C1)[C@H](c1ccc(-c3ccccc3)cc1)[C@@H]2CO | 1 | 0
O=C(NC1CC1)C1=C[C@@H](c2coc3ccccc3c2=O)C[C@@H](OCCCCO)O1 | 16 | 15
COc1ccc(NC(=O)N(C)C[C@H]2Oc3c(NS(=O)(=O)c4cn(C)cn4)cccc3C(=O)N([C@H](C)CO)C[C@@H]2C)cc1 | 10 | 17
COc1ccccc1C#Cc1ccc([C@H]2[C@H]3CN(S(C)(=O)=O)CCCCN3[C@H]2CO)cc1 | -20 | -26
O=C(CCN1CCCCC1)N[C@H]1CC[C@@H](CCn2cc(-c3cccc(F)c3)nn2)O[C@H]1CO | -6 | 3
CC=Cc1ccc2n(c1=O)C[C@H]1[C@H](CO)[C@@H](C(=O)NCC(F)(F)F)N(CCC)[C@@H]21 (mixture of isomers) | 8 | 17
Cc1ccc(S(=O)(=O)N(C)C[C@H]2OCCCC[C@@H](C)Oc3ccc(NC(=O)c4ccncc4)cc3C(=O)N([C@H](C)CO)C[C@@H]2C)cc1 | 38 | 15

# Continuation:
SMILES | Vaccinia stage | Vaccinia stage Venus
CO[C@@H](CN(C)Cc1nccs1)[C@H](C)CN([C@@H](C)CO)S(=O)(=O)c1ccc(C)cc1 | 3 | 3
Cc1noc(C)c1S(=O)(=O)N(C)C[C@@H]1Oc2c(NS(=O)(=O)c3cn(C)cn3)cccc2C(=O)N([C@@H](C)CO)C[C@H]1C | 1 | 0
COCC(=O)N(C)C[C@@H]1Oc2ncc(Br)cc2C(=O)N([C@H](C)CO)C[C@H]1C | 11 | 14
CCC(=O)Nc1ccc2c(c1)C(=O)N(C)C[C@@H](OC)[C@H](C)CN(C(=O)c1ccccn1)[C@@H](C)CO2 | 5 | 7
Cc1ccc(S(=O)(=O)Nc2ccc3c(c2)CC(=O)N([C@@H](C)CO)C[C@H](C)[C@@H](CN(C)C(=O)NC2CCCCC2)O3)cc1 | 7 | 9
C[C@H]1CN([C@@H](C)CO)C(=O)c2cc(N(C)C)ccc2O[C@H]1CN(C)Cc1ccc2c(c1)OCO2 | -1 | -1
CC(=O)N(C)C[C@H]1Oc2cc(C#CC3CCCC3)ccc2S(=O)(=O)N([C@@H](C)CO)C[C@H]1C | -24 | -25
COc1ccc(CN(C)C[C@H]2Oc3c(NS(=O)(=O)c4ccccc4)cccc3C(=O)N([C@H](C)CO)C[C@H]2C)cc1 | -1 | -2
COCC#Cc1ccc([C@@H]2[C@H](C#N)N(C(=O)c3cccnc3)[C@H]2CO)cc1 | 5 | -5
CCCNC(=O)N(C)C[C@@H]1Oc2ncc(C#Cc3ccccc3F)cc2C(=O)N([C@H](C)CO)C[C@H]1C | 7 | 5
CCC(=O)N1[C@H](CO)[C@H](c2ccccc2)[C@@H]1CN(C(C)C)S(C)(=O)=O | -5 | -9
COc1ccc(NC(=O)N(C)C[C@H]2OCCCC[C@H](C)Oc3ccc(NS(=O)(=O)c4ccc(Cl)cc4)cc3C(=O)N([C@H](C)CO)C[C@@H]2C)cc1 | 6 | 2
CN1c2ccc(C#Cc3cccnc3)cc2[C@H]2[C@H](CCN2S(=O)(=O)c2cccc(F)c2)[C@H]1CO | -14 | 10
COc1ccccc1-c1ccc2c(c1)[C@@H]1[C@@H](CCN1C(=O)C1CCCCC1)[C@@H](CO)N2 | -86* | -10*
C[C@@H]1CN([C@@H](C)CO)C(=O)c2cc(C#Cc3cccnc3)cnc2O[C@H]1CN(C)C(=O)CC1CC1 | -1 | 4
O=S(=O)(c1ccc(F)cc1)N1CC[C@@H]2[C@H]1c1cc(Br)ccc1N[C@@H]2CO | -27 | -22
CN1C(=O)c2cc(NC(=O)C3CCC3)ccc2OC[C@H]2O[C@@H](CC(=O)NCCc3ccncc3)CC[C@@H]21 | 16 | 13
COc1ccccc1S(=O)(=O)N[C@H]1CC[C@@H](CCNC(=O)C2CC2)O[C@H]1CO | -2 | -1
CN1c2ccc(-c3ccccc3)cc2[C@@H]2[C@@H](CCN2C(=O)c2ccc3c(c2)OCO3)[C@H]1CO | -25 | -24
O=C(C[C@@H]1C[C@H]2c3cc(NC(=O)NC4CCCCC4)ccc3O[C@H]2[C@H](CO)O1)NCc1cccnc1 | 9 | 0
O=C(NCCCN1CCOCC1)[C@H]1[C@H](CO)[C@H]2Cn3c(ccc(C4=CCCCC4)c3=O)[C@@H]1N2 | 2 | 3
Cc1noc(C)c1S(=O)(=O)N(C)C[C@@H]1OCCCC[C@@H](C)Oc2ccc(NC(=O)Nc3ccc(C(F)(F)F)cc3)cc2C(=O)N([C@@H](C)CO)C[C@@H]1C | 0 | -8
COc1ccc(-c2ccc([C@@H]3[C@H](C#N)N[C@H]3CO)cc2)cc1 | 3 | -1
C[C@H]1CN([C@@H](C)CO)C(=O)Cc2cc(NC(=O)c3ccncc3)ccc2O[C@@H]1CN(C)C(=O)Nc1ccc(F)cc1 | 16 | 6
C[C@H]1CN([C@@H](C)CO)C(=O)c2cccc(NC(=O)C3CCCCC3)c2O[C@H]1CN(C)C(=O)Nc1ccc2c(c1)OCO2 | 13 | 7
Cc1noc(C)c1S(=O)(=O)Nc1ccc2c(c1)C(=O)N([C@H](C)CO)C[C@@H](C)[C@@H](CN(C)CC1CCCCC1)OCCCC[C@H](C)O2 | ? | /

# Structures listed so far that contain an aryl methoxy group (11):
SMILES | Vaccinia stage | Vaccinia stage Venus
COc1ccc(-c2ccc3n(c2=O)C[C@@H]2[C@@H](CO)[C@H](C(=O)Nc4ccccc4)[C@H]3N2C)cc1 | 0 | 5
COc1ccc(S(=O)(=O)Nc2ccc3c(c2)CC(=O)N([C@@H](C)CO)C[C@H](C)[C@H](CN(C)C(=O)NC2CCCCC2)O3)cc1 | 12 | 7
COc1ccc(NC(=O)N2CC(=O)N3[C@H](CO)[C@H](c4ccc(C5=CCCC5)cc4)[C@H]3C2)cc1 | -12 | -15
COc1ccc(S(=O)(=O)N(C)C[C@H]2Oc3ccc(NC(=O)Nc4ccc5c(c4)OCO5)cc3C(=O)N([C@H](C)CO)C[C@H]2C)cc1 | 4 | 12
COc1ccc(NC(=O)N(C)C[C@H]2Oc3c(NS(=O)(=O)c4cn(C)cn4)cccc3C(=O)N([C@H](C)CO)C[C@@H]2C)cc1 | 10 | 17
COc1ccccc1C#Cc1ccc([C@H]2[C@H]3CN(S(C)(=O)=O)CCCCN3[C@H]2CO)cc1 | -20 | -26
COc1ccc(CN(C)C[C@H]2Oc3c(NS(=O)(=O)c4ccccc4)cccc3C(=O)N([C@H](C)CO)C[C@H]2C)cc1 | -1 | -2
COc1ccc(NC(=O)N(C)C[C@H]2OCCCC[C@H](C)Oc3ccc(NS(=O)(=O)c4ccc(Cl)cc4)cc3C(=O)N([C@H](C)CO)C[C@@H]2C)cc1 | 6 | 2
COc1ccccc1-c1ccc2c(c1)[C@@H]1[C@@H](CCN1C(=O)C1CCCCC1)[C@@H](CO)N2 | -86* | -10*
COc1ccccc1S(=O)(=O)N[C@H]1CC[C@@H](CCNC(=O)C2CC2)O[C@H]1CO | -2 | -1
COc1ccc(-c2ccc([C@@H]3[C@H](C#N)N[C@H]3CO)cc2)cc1 | 3 | -1
